VACV E9 pol inh: vaccinia E9 polymerase processive synthesis inhibitors, primary screen, biochemical, absorbance. hit rate 0.94% among 46,000. Vaccinia virus DNA polymerase (E9) processive complex. normalized absorbance, % (concentration not given with the values). in vitro processive DNA synthesis, absorbance read-out; stronger effect = lower value; some inactives read as strong as hits;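 active = replicate mean up to 90% and picked by the depositor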;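 note: 100% = median of the test wells of a plate; 100 nL library stock went into each well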
* = called active by the depositor. The list is partial (hit frequency here may not be typical).

canonical_smiles,VACV E9 pol inh
Cc1ccc(S(=O)(=O)C2(C(=O)NC3CCCCC3)CC2)cc1,100
O=C(Nc1ccccc1)Nc1ccc(Cl)cc1SCc1ccccc1,93
O=C(NCCc1ccc(Cl)cc1)c1ccc2c(c1)ncn2C1CCCC1,111
CCCCCCCCCCC/C=C\C/C=C\CCCC(=O)O,97
Cc1ccc(CNC(=S)NCCO)cc1,103
Cc1[nH]c2ccccc2c1C(=O)CSc1ccccn1,100
O=C(CS(=O)(=O)CC(=O)c1ccccc1)c1ccccc1,102
S=c1nn[nH]n1C1CCCC1,101
O=S(=O)(Nc1ccc(N2CCCCC2)cc1)c1ccccc1,103
O=C(NCCn1ccc2ccccc21)C1CC1,101
CC(C)CCN(Cc1ccco1)C(=O)c1oc(=O)c2ccccc2c1-c1ccccc1,98
CCOC(=O)c1cc2c(C)n(-c3ccccc3)c(C)c2cc(C(=O)OCC)c1=O,100
O=C(COC(=O)Cc1c[nH]c2ccccc12)Nc1ccc(Cl)cc1F,103
COc1ccc(NCC(=O)n2c3ccccc3c3ccccc32)cc1,100
CC1=C(/C=C/C(C)=C/C=C/C(C)=C/C=C/C=C(C)/C=C/C=C(C)/C=C/C2=C(C)CCCC2(C)C)C(C)(C)CCC1,95
O=C(O)CC(NS(=O)(=O)c1ccc(Br)cc1)c1ccccc1 (stereo not given),99
CN(Cc1ccccc1)C(=O)c1cnn(-c2ccccc2)c1-n1cccc1,103
O=S1(=O)CCN(Cc2cccnc2)CC1,100
Cc1ccc(-n2ncc3c(=O)[nH]c(SCc4ccccc4)nc32)cc1,82
COc1ccccc1C(=O)N(c1ccccc1)C(C)C1CC1 (stereo not given),96
O=C(c1nc2ncccn2n1)N(Cc1ccccc1)Cc1ccccc1,92
CC(=O)Cn1cnc2sc(-c3ccccc3)cc2c1=O,94
COc1ccc(/C=C2\CCc3ccccc3C2=O)cc1CN1CCOCC1,100
O=C(CCSc1nc(-c2ccco2)cc(C(F)(F)F)n1)Nc1ccccc1,95
COc1ccc(N=C/C(Br)=C/c2ccccc2)cn1,99
N#CC1=C(SCC(N)=O)NC(=O)C(C#N)C1c1ccccc1Cl (stereo not given),95
O=C(O)CC(c1ccc(Br)cc1)n1cccc1 (stereo not given),98
CCCNC(=O)Nc1cc(S(=O)(=O)CC)ccc1O,101
COc1ccc(CCNC(=S)NC(=O)c2ccc(Cl)cc2Cl)cc1OC,102
Fc1ccc(-c2nnc(N3CCOCC3)c3ccccc23)cc1,92
O=C(CNC(=O)c1ccco1)Nc1ccc(Br)cc1,104
Cc1onc(-c2ccccc2Cl)c1C(=O)OC(c1ccccc1)C(F)(F)F (stereo not given),100
Cc1ccc2cc(CCNC(=O)c3ccc(F)c(F)c3)c(=O)[nH]c2c1C,96
COCCn1c(SC(C)C)nnc1-c1c[nH]c2ccccc12,100
COc1ccc2sc(N(CCN(C)C)C(=O)Cc3ccccc3)nc2c1,102
O=C(NCC1CCNCC1)/C(=N/O)c1ccccc1,109
c1ccc2sc(NC3=NCN(CCN4CCOCC4)CN3)nc2c1,110
O=C(NCCN1CCNC1=O)c1ccc2nccnc2c1,93
O=S(=O)(Nc1ccc(O)c(Sc2ncn[nH]2)c1)c1ccccc1,97
Cc1ccc(/C=C/C(=O)N2CCN(C(=O)/C=C/c3ccc(C)o3)CC2)o1,91
Cn1c(CO)nc2cc(Cl)ccc21,101
COC(=O)C1=C(c2ccccc2)S(=O)(=O)CCN1C(C)=O,100
COc1ccc(C2SC[C@H]3C(=O)N(c4ccccc4)C(=S)N23)cc1 (stereo not given in full),85
O=c1ccc(=O)n(CNc2nccs2)[nH]1,100
NNc1nc(-c2ccccc2)cc(-c2ccccc2)n1,99
CC(C)c1ccc(NS(=O)(=O)Cc2ccccc2)cc1,100
CS(=O)(=O)c1ccc(Cl)c(Cl)c1,106
CN[C@@H]1C(OC2[C@H](O[C@H]3[C@H](O)[C@@H](O)[C@H](N=C(N)N)[C@@H](O)[C@@H]3N=C(N)N)OC(C)[C@]2(O)CO)OC(CO)C(O)C1O (stereo not given in full),100
N#CC(C#N)=C(Nc1ccc(Br)cc1)SCc1ccc(F)cc1,86
CCC(C(=O)NC1CCCC1)n1c(SCc2ccc(C)cc2)nc2ccncc21 (stereo not given),102
CC(C)CCN=CC1=C(O)CC(c2ccccc2)CC1=O (stereo not given),90
O=C(CCSCc1ccc(Cl)cc1)N1CCN(c2ccccc2)CC1,100
O=C(Cn1c(SCc2cccc(C(F)(F)F)c2)nc2ccncc21)NCCC1=CCCCC1,98
CNCCC=C1c2ccccc2CCc2ccccc21,105
COc1ccc2c(=S)c(-c3csc(C)n3)c(C)oc2c1,87
CCOC(=O)c1c(NC(=O)C2(S(=O)(=O)c3ccccc3)CC2)sc(C)c1C,100
O=C(COC(=O)c1cc(Cl)nc(Cl)c1)NC(c1ccccc1)c1ccccc1,98
COC(=O)c1ccc(S(=O)(=O)NCc2ccco2)o1,96
Cc1cc2nc(-c3ccc(Cl)nc3)[nH]c2cc1C,101
COc1ccc(-c2[nH]ncc2C(=O)NCCCc2ccccc2)cc1,84

Given field by field: part of the list above.
Cc1[nH]c2ccccc2c1C(=O)CSc1ccccn1
  VACV E9 pol inh: 100
O=C(CCSCc1ccc(Cl)cc1)N1CCN(c2ccccc2)CC1
  VACV E9 pol inh: 100

Carrying on:
canonical_smiles,VACV E9 pol inh
COc1ccc2nc(N3CCCCC3)c(/C=C3\N=C(c4ccccc4)OC3=O)cc2c1,100
COc1cc(OC)c(NC(=O)Cc2noc3ccc(C)cc23)cc1Cl,99
OC1(c2ccccc2)CN2CCC1CC2 (stereo not given),106
O=c1c(Oc2ccc(F)cc2)coc2cc(O)cc(O)c12,97
CCOC(=O)CNc1n[nH]c(=O)[nH]c1=O,102
COc1ccc(Nc2ccc3nnc(-c4ccc(Br)cc4)n3n2)cc1,100
CCC(=O)c1ccc(Cl)c(Cl)c1,86
CCOc1ccccc1N(C)C(=O)c1cc2cc3ccc(OC)cc3nc2s1,97
Oc1ccccc1-c1nnco1,116
O=C(/C=C/c1ccc(Cl)cc1)Nc1nnc(C2CC2)s1,93
CCN(C(=O)CCc1ccccc1)c1ccccc1,101
Cc1cccc(OCC(=O)OCCN2CCCC2=O)c1,90
O=C1c2ccccc2C2N1c1ccccc1S(=O)(=O)N2Cc1ccccc1 (stereo not given),100
CS(=O)(=O)N1CC(=O)Nc2ccccc21,91
O=C(NCCc1ccccc1)c1ccc(-c2ccccc2)cc1,99
CCOC(=O)NC1(/N=C(/Nc2ccccc2)N2CCOCC2)Oc2ccccc2O1,100
Cc1ccc2oc(=O)n(CC(C)C)c2c1,95
CNC(=O)C1CCN(c2nnc(-n3c(C)ccc3C)s2)CC1,99
O=C1/C(=C/c2cccnc2)CS/C1=C\c1cccnc1,84
COc1ccc(OC)c(CNC(=O)C2CCCN(S(=O)(=O)N3CC(C)CC(C)C3)C2)c1 (stereo not given),109
O=C(/C=C/Sc1ccccn1)c1ccccc1,102
COc1ccccc1C(=O)COC(=O)CCC1CCCC1,103
CNC(=S)Nc1cscc1S(=O)(=O)c1ccc(Cl)cc1,107
CC1=CC(c2ccc(F)cc2)C(C(=O)O)(C(=O)n2nc(C)cc2C)CC1 (stereo not given),99
c1ccc(SCCN2CCN(CCSc3ccccc3)CC2)cc1,100
Cc1c(NC2CS(=O)(=O)CC2O)c(=O)n(-c2ccccc2)n1C (stereo not given),95
CC(=O)N1[C@@H](c2ccc(C)cc2)SC(C)(C)[C@@H]1C(=O)O,101
Cc1ccc(C(=O)OCc2cn3ccccc3n2)cc1,89
O=C(NCc1ccc(Cl)cc1)c1ccc2c(=O)n(-c3ccccc3)c(=O)[nH]c2c1,102
CC(C)CN(CC(C)C)S(=O)(=O)N1CCC(C(=O)N2CCOCC2)CC1,88
CCN(Cc1ccccc1)C(=O)c1ccc(C(=O)N(CC)Cc2ccccc2)cc1,100
CCOC(=O)Cn1cnc2c(nnn2-c2ccc(C)cc2)c1=O,103
Nc1ncc(-c2cc3ccccc3oc2=O)s1,100
Cc1ccc(COn2c(-c3ccccc3)nc3ccccc3c2=O)cc1,92
CCN(Cc1ccccc1)C(=O)CC1Oc2ccccc2NC1=O (stereo not given),107
O=S(=O)(CCc1ccccc1)/N=C/c1cccs1,106
CCn1cc(C(C)(C)C)c(C#N)c1NC(C)=O,100
Cc1ccc2oc(=O)c3cc(C(=O)NCCN4CCN(Cc5ccccc5)CC4)sc3c2c1,98
O=S(=O)(c1ccc(Cl)nc1)N1CCCC1,100
O=C(O)c1ccccc1N1Cc2ccccc2C1=O,96
O=C(O)/C=C/C(=O)NC1CC1,100
O=C1CSc2ccc(C(=O)NCc3c(F)cc(F)cc3F)cc2N1,106
COc1cc(-c2nnc(SCC(=O)N3CCCCC3C)o2)cc(OC)c1OC (stereo not given),102
O=C(O)c1cc(S(=O)(=O)NCCN2CCNC2=O)ccc1O,93
CCOC(=O)N1CCN(CC(O)COC2CC(C)CCC2C(C)C)CC1 (stereo not given),98
CCCc1[nH]n(-c2ccc(F)cc2)c(=O)c1C=N,100
COc1ccc(NC(=S)N(C(C)C)C2CCN(C(C)C)CC2)cc1Cl,104
CN(c1ncc(C(F)(F)F)cc1Cl)n1cccc1,97
O=C(NC1CCCC1)c1c[nH]c2ccc(S(=O)(=O)Nc3ccccc3F)cc2c1=O,96
COC(=O)C(Cc1csc2ccc(Cl)cc12)NC(=O)c1ccc(C(F)(F)F)cc1 (stereo not given),94
COc1ccc(CC(=O)NCc2ccc3[nH]c4c(c3c2)CCCC4)cc1,102
N#Cc1sc2sc(C#N)c(-c3ccco3)c2c1N,59
Cc1cc2c(cc3c(SCc4ccccc4)nncn32)o1,91
Cc1cccc(OCC(O)CN2CCCCC2)c1 (stereo not given),114
COc1cccc(-c2cc(C(=O)N3CCN(C(=O)c4ccco4)CC3)on2)c1,101
CCc1cc(=O)[nH]c(SCc2cccc(Cl)c2)n1,103
Cc1ccc(S(=O)(=O)NCC2OCCc3ccccc32)cc1 (stereo not given),100
C=CCC1(C(C)CCC)C(=O)N=C(S)NC1=O (stereo not given),100
CSc1ccc(CN2CCOCC2)cc1,100
CN(CCO)C(=O)c1ccc2c(c1)C(=O)c1ccccc1-2,88

Taken from the results shown, 19 compounds:
canonical_smiles,VACV E9 pol inh
O=C1CSc2ccc(C(=O)NCc3c(F)cc(F)cc3F)cc2N1,106
COc1cc(-c2nnc(SCC(=O)N3CCCCC3C)o2)cc(OC)c1OC (stereo not given),102
O=C(O)c1cc(S(=O)(=O)NCCN2CCNC2=O)ccc1O,93
CCOC(=O)N1CCN(CC(O)COC2CC(C)CCC2C(C)C)CC1 (stereo not given),98
CCCc1[nH]n(-c2ccc(F)cc2)c(=O)c1C=N,100
COc1ccc(NC(=S)N(C(C)C)C2CCN(C(C)C)CC2)cc1Cl,104
CN(c1ncc(C(F)(F)F)cc1Cl)n1cccc1,97
O=C(NC1CCCC1)c1c[nH]c2ccc(S(=O)(=O)Nc3ccccc3F)cc2c1=O,96
COC(=O)C(Cc1csc2ccc(Cl)cc12)NC(=O)c1ccc(C(F)(F)F)cc1 (stereo not given),94
COc1ccc(CC(=O)NCc2ccc3[nH]c4c(c3c2)CCCC4)cc1,102
N#Cc1sc2sc(C#N)c(-c3ccco3)c2c1N,59
Cc1cc2c(cc3c(SCc4ccccc4)nncn32)o1,91
Cc1cccc(OCC(O)CN2CCCCC2)c1 (stereo not given),114
COc1cccc(-c2cc(C(=O)N3CCN(C(=O)c4ccco4)CC3)on2)c1,101
CCc1cc(=O)[nH]c(SCc2cccc(Cl)c2)n1,103
Cc1ccc(S(=O)(=O)NCC2OCCc3ccccc32)cc1 (stereo not given),100
C=CCC1(C(C)CCC)C(=O)N=C(S)NC1=O (stereo not given),100
CSc1ccc(CN2CCOCC2)cc1,100
CN(CCO)C(=O)c1ccc2c(c1)C(=O)c1ccccc1-2,88

Next part
canonical_smiles,VACV E9 pol inh
COc1cccc(/C=C2\CN(C)C/C(=C\c3cccc(OC)c3)C2=O)c1,91
COC(=O)CC(=O)N1CCN(c2ccc(Cl)c(Cl)c2)CC1,102
O=C(O)CNc1nc(-c2ccccc2)nc2ccccc12,101
O=C1c2ccccc2-c2onc3c(Br)cc(NCc4ccccc4)c1c23,99
O=C(Nc1ccccc1)c1cccn(OCc2ccccc2)c1=O,100
c1ccc(-c2nc(NC3CC3)nc(-n3ccnc3)n2)cc1,100
O=S(=O)(c1ccc(-c2csc(Nc3ccc(Br)cc3)n2)cc1)N1CCCCC1,101
CC(C)CCNC(=O)c1sc2ccc(S(=O)(=O)N3CCCCC3)cc2c1N,96
Cc1ccccc1CSCc1ccc(C(=O)N2CCNc3ccccc3C2)o1,96
CCN(CC)S(=O)(=O)c1cc(C(=O)NCCc2ccc(Cl)cc2)ccc1F,104
CC(C)(C)NC(=O)COc1ccc(CNC2C3CC4CC(C3)CC2C4)cc1 (stereo not given),100
CCc1ccc(NC(=O)N2CCn3c(C)ccc3C2CC)cc1 (stereo not given),104
O=C1Nc2ccccc2/C1=C/C(=O)c1ccc(Cl)cc1,94
Cn1c(=O)n(C)c2cc(S(=O)(=O)N3CCCC3)ccc21,98
NC(=O)C1CCN(c2nccc(C(F)(F)F)n2)CC1,94
OCCN=C(c1ccc(Cl)cc1)N1CCN(C(=NCCO)c2ccc(Cl)cc2)CC1,100
CC1(C)CC(=O)C(C2(O)C(=O)N(CN3CCOCC3)c3ccccc32)CO1 (stereo not given),101
CC1CC(=O)C2=C(OC(N)=C(C#N)C2c2ccccc2C(F)(F)F)O1 (stereo not given),100
Cn1c(=O)c2c(nc(CN3CCN(C(=O)c4ccco4)CC3)n2Cc2ccccc2F)n(C)c1=O,93
